Biofilm kill mix: mixtures killing C. albicans biofilm; C. albicans biofilm persisters + clotrimazole, fluorescence viability; primary screen in compound mixtures of four per well; inhibition, % at 7.6 µM; 120,000 compounds, 0.02% hits;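 active means inhibition above 30.3% in the primary screen of four-compound pools, then above 30% when the compound was retested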;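 further: compounds exposed to preformed 24 h biofilms for 48 h; the number belongs to the whole pool; some results filed as inactive read as strong as hits; inactives centre near 12; 0% = biofilm with clotrimazole alone and 100% = kill control; retested singly at about 60 µM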
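Incubation: 24 h biofilm formation, then 48 h compound exposure, 37 °C | Material: C. albicans biofilms | Buffer or medium: RPMI/MOPS medium, pH 7.0 | Measured by: 2-h Alamar Blue fluorescence, 535/590 nm excitation/emission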
The depositor's hits bear a star; & = joins results of further samples. Only part of the results is shown; rates above refer to the full screens.

SMILES	Biofilm kill mix
CN(C)CCCC1(c2ccc(F)cc2)OCc2cc(C#N)ccc21 (centres undefined)	19
C1COC(NC(C2CC2)C2CC2)=N1	17
Cc1ccc(N(CC2=NCCN2)c2cccc(O)c2)cc1	-6&-5
CNCCCN1c2ccccc2CCc2ccccc21	10
COc1ccc(C[C@H]2COC(=O)[C@@H]2Cc2ccc(OC3OC(CO)C(O)C(O)C3O)c(OC)c2)cc1OC (some centres undefined)	8
O=c1oc2c(O)c(O)cc3c(=O)oc4c(O)c(O)cc1c4c23	19
CCn1cc(C(=O)O)c(=O)c2cnc(N3CCNCC3)nc21	12
CCCCCC(=O)O[C@]1(C(C)=O)CC[C@H]2[C@@H]3CCC4=CC(=O)CC[C@]4(C)[C@H]3CC[C@@]21C	9
O=C(O)c1cccnc1Nc1cccc(C(F)(F)F)c1	12
O=C(O)CCC(=O)c1ccc(-c2ccccc2)cc1	19

Single values from above.
Biofilm kill mix, O=c1oc2c(O)c(O)cc3c(=O)oc4c(O)c(O)cc1c4c23 → 19
Biofilm kill mix, CCCCCC(=O)O[C@]1(C(C)=O)CC[C@H]2[C@@H]3CCC4=CC(=O)CC[C@]4(C)[C@H]3CC[C@@]21C → 9

Ordered by formula weight (smallest number first): 3 of the compounds above.
SMILES	Biofilm kill mix
O=c1oc2c(O)c(O)cc3c(=O)oc4c(O)c(O)cc1c4c23	19
CN(C)CCCC1(c2ccc(F)cc2)OCc2cc(C#N)ccc21 (centres undefined)	19
COc1ccc(C[C@H]2COC(=O)[C@@H]2Cc2ccc(OC3OC(CO)C(O)C(O)C3O)c(OC)c2)cc1OC (some centres undefined)	8

The listing picks up, starting 4 compounds before the break.
SMILES	Biofilm kill mix
CCn1cc(C(=O)O)c(=O)c2cnc(N3CCNCC3)nc21	12
CCCCCC(=O)O[C@]1(C(C)=O)CC[C@H]2[C@@H]3CCC4=CC(=O)CC[C@]4(C)[C@H]3CC[C@@]21C	9
O=C(O)c1cccnc1Nc1cccc(C(F)(F)F)c1	12
O=C(O)CCC(=O)c1ccc(-c2ccccc2)cc1	19
CCCCNc1ccc(C(=O)OCCN(C)C)cc1	14
C=CC[n+]1ccc(/C=C2\C=Cc3cc(C)ccc3N2CC)c2ccccc21	18
COc1ccc(C2CNC(=O)C2)cc1OC1CCCC1 (centres undefined)	13
C/C=C(/C)C(=O)OC(C)(C)[C@@H]1Cc2c(ccc3ccc(=O)oc23)O1	17
CN1CCCN=C1COC(=O)C(O)(c1ccccc1)C1CCCCC1 (centres undefined)	12
CC1Cc2ccccc2N1NC(=O)c1ccc(Cl)c(S(N)(=O)=O)c1 (centres undefined)	13
CCC(NC(C)C)C(O)c1ccc(O)c2[nH]c(=O)ccc12 (centres undefined)	19
CC(C)=CCOc1c2ccoc2cc2oc(=O)ccc12	22
Cc1cncn1CCc1nc2c3ccccc3nc(SCC(=O)Nc3cccc(Cl)c3)n2n1	6
